# Vif A3G: inhibitors of Vif binding to APOBEC3G peptide, primary screen, biochemical, TR-FRET, GST-Vif 1-94, biotin-A3G peptide, dose response retest (AID 1117319). TR-FRET GST-Vif / biotin-A3G peptide binding; higher % means a stronger effect; test concentration not given here; strong numbers were not always called active. 260,000 tested, 0.57% active. Virion infectivity factor (Human immunodeficiency virus type 1 group M subtype B (isolate …. inhibition, %, or IC50 in µM where a hit was titrated;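 active = above the screen mean plus three standard deviations and confirmed in dose response; inconclusive = results disagree or hit not tested in dose response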;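 also: Vif residues 1-94 fused to GST binding biotinylated APOBEC3G peptide 110-148; 0% = full assay without inhibitor and 100% = GST in place of GST-Vif; retest series ran down from 100 µM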
# RanGTP-Impb inh: inhibitors of RanGTP-importin-beta interaction, primary screen, biochemical, FRET, CFP-Ran, YFP-importin-beta, homogeneous. Ran GTPase (GTP-bound) - importin-beta complex. cell-free CFP-Ran/YFP-importin-beta FRET ratio. inhibition, % (concentration not given with the values). 300,000 tested, 1.1% active. AID 2216, 2009;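 active = most replicates above 15%; inconclusive = exactly half above 15%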;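 also: 0% = DMSO wells and 100% = Ran loaded with GDP instead of GTP; wells of about 40 µL received 100 nL stock; the first replicate is given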
# Beta cell apopt: inhibitors of cytokine-induced beta cell apoptosis, primary screen, luminescence | AID 435005, 2010 | protection from apoptosis, % (concentration not given with the values) | INS-1E cytokine-induced death, ATP luminescence, 48 h; percent of positive-control rescue, neutral wells zero | 300,000 tested, 0.8% active;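 active = all replicates at 75% or more, or half of them and the mean; inconclusive = half reach 75% but not the mean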;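 also: 0% = cytokine-treated negative control wells and 100% = positive control rescue; higher means more ATP so stronger rescue from cytokine killing; wells of about 40 µL received 100 nL stock; the first replicate is given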
# LANA-H2A inh: blockers of LANA interaction with H2A/H2B – biochemical, FP readout, HTS, primary screen. AID 2629, 2010. Protein LANA1 (Human herpesvirus 8 type P (isolate GK18)), Q9QR71. cell-free LANA-H2A/H2B peptide, fluorescence polarization. 320,000 tested, 0.6% active. inhibition, % (test concentration not listed); in the data active = inhibition mostly above about 10%, no sharp cut-off; inactive = mostly below about 6.7%;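 also: stock transfer was 7.5 nL into about 10 µL; 0% = median of vehicle wells and 100% = median of positive control wells; one replicate is shown; the record names a cut of 25% in any replicate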
# AF4-AF9 inh: inhibitors of AF4 peptide binding to AF9, primary screen, biochemical, AlphaScreen, biotin-AF4 peptide, FLAG-AF9, single point | AID 651704, 2012 | 350,000 tested, 0.47% active | Protein AF-9 (Homo sapiens), P42568 | inhibition, % at 10 µM;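 active = every replicate reaching a set inhibition limit, whatever the replicate mean, cut at about 25% in these data; inconclusive = mean inhibition reaches that limit but some replicates miss it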;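 also: 0% = plate neutral control median and 100% = total signal loss; the record names both 10 and 1 µM as test concentration; the first replicate is given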
# Target sequence (P42568 whole entry, looked up): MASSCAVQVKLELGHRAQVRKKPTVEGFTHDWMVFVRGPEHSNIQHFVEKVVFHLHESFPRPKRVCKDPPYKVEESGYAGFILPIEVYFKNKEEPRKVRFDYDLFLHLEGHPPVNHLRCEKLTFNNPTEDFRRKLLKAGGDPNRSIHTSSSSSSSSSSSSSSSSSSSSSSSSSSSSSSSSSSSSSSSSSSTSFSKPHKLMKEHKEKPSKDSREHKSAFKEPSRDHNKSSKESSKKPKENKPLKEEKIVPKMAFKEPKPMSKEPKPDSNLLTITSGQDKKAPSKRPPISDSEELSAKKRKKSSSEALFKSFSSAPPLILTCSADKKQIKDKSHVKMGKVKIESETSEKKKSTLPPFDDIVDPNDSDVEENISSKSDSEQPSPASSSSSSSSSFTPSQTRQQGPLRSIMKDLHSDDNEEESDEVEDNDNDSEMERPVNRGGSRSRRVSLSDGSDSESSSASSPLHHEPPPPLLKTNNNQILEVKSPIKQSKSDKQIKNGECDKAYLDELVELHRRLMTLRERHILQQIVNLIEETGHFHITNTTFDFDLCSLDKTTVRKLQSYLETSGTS
# Bfl-1 A1 inh: caspase 3/7 activation in MEF A1-2A-BIM cells, primary screen, A1 inhibitor project, cell-based, luminescence, HTS; Caspase-Glo 3/7 luminescence, 3 h; percent of clofoctol response, vehicle zero; AID 2462, 2010; caspase activation, % (concentration not given with the values); 330,000 tested, 0.066% active;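 active = over half of replicate activation scores above 10%, or exactly half above 10 with the replicate mean above 10; inconclusive = replicate mean below 10 yet half the replicates above 10; inactive = over half of replicates below 10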;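 also: wells of about 30 µL received 50 nL stock; many hits fall short of the cut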
# T cruzi repl: inhibitors of intracellular T. cruzi growth, primary screen, luminescence, NIH3T3 host cells; inhibition, % (concentration not given with the values); T. cruzi beta-gal in NIH3T3, 90 h; 300,000 tested, 1.4% active;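 active = mean inhibition across valid replicates above about 55%, limit read from the data; inconclusive = mean below that limit but half or more replicates reach it; inactive = mean below it, under half of replicates reach it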;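 also: signal also drops with host cell toxicity which is not excluded here; 0% = plate median of DMSO wells and 100% = zero luminescence signal; higher percent means less beta-gal luminescence so fewer parasites; stock transfer was 50 nL into about 50 µL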
# Calb FLC: C. albicans growth inhibition with fluconazole, primary screen, CaCi-2 strain, Alamar Blue fluorescence; growth inhibition, % (no concentration beside the values); AID 1979, 2009; C. albicans CaCi-2 (fluconazole-resistant clinical isolate) + fluconazole, 48 h; 300,000 tested, 0.57% active;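 active = most replicates above 75%; inconclusive = exactly half above 75%; inactive = most below 75%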;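 also: all wells also contain fluconazole at 8 µg/ml as a sub-toxic cotreatment; 0% = median of DMSO wells and 100% = median of geldanamycin control wells; wells of about 8 µL received 7.5 nL stock; the first replicate is given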
# The depositor's hits bear a star; ? = inconclusive; / = no result given; & = joins results of further samples.
SMILES,Vif A3G,RanGTP-Impb inh,Beta cell apopt,LANA-H2A inh,AF4-AF9 inh,Bfl-1 A1 inh,T cruzi repl,Calb FLC
COc1ccc(C2CC(O)(c3ccccc3)Oc3c(C)ccc(C)c32)cc1 (stereo not drawn),75%,-0.7,-5,3.0,-27,0.3,34,-2
CCOC(=O)Cc1nnc2c(Nc3ccc(C)cc3)nc3nonc3n12,31%,0.8,-5,-0.6,/,1.8,-6,-8
CCC(C)NC(=S)NNC(=O)c1ccc(C(C)(C)C)cc1 (stereo not drawn),65%,0.0,-4,-2.2,/,0.2,4,8
CC(C)NC(=O)COC(=O)c1cc(F)c(F)cc1Cl,6%,-3.7,/,0.1,/,-0.3,-10,0
CC(=O)OCC(=O)Nc1ccc(C(C)=O)cc1,-12%,6.8,2,-1.1,/,-1.0,-2,-1
CCOC(=O)C1CCCN(C/C(O)=C(\C#N)c2nc(-c3ccccc3)cs2)C1 (stereo not drawn),14%,0.3,0,-4.6,/,-1.0,6,-11
c1ccc2oc(NC3=NCN(C4CCCCC4)CN3)nc2c1,21%,-2.9,-5,-1.6,/,0.4,7,-8
CCc1ccccc1NC(=O)CCS(=O)(=O)c1ccc(Br)cc1,?,3.7,-6,-4.1,-5.0,-0.1,-9,3
Cc1cc(C)c2c(N)c(C(=O)N3CCc4ccccc4C3)sc2n1,3%,-3.0,1,-3.5,-7.4,-0.3,37,-15
O=C(CN(Cc1ccco1)C(=O)Cn1nnc(-c2ccc(F)cc2)n1)NC1CCCC1,3%&-10%,?,-1,4.0,/,-0.5,-14,7
Nc1nc(NCC2CCCO2)nc(Nc2ccccc2F)c1[N+](=O)[O-] (stereo not drawn),1%,1.4,/,-2.2,-2.9,-0.1,-5,-5
CC1CCc2nc(NC(=O)CN3CCN(c4ccccc4)CC3)sc2C1 (stereo not drawn),-5%,4.5,3,-0.5,/,-0.4,-8,-2
COc1ccc(CN2C(=O)c3cccnc3C2=O)cc1S(=O)(=O)N(C)c1ccc(C)cc1,/,7.2,-2,-3.3,2.6,0.9,-10,-1
O=C(COC(=O)C1COc2ccccc2O1)NC1CCCCC1 (stereo not drawn),2%,/,-3,4.6,-1.9,-0.5,/,/
CCOc1ccc2nc(N(CCN(C)C)C(=O)c3ccc4ccccc4c3)sc2c1,/,?,-4,-2.6,0.8,1.0,26,14
CN1CCN(S(=O)(=O)c2ccc(SCCOc3ccc(Cl)cc3)nc2)CC1,/,/,6,5.0,4.1,0.5,/,/
Cc1ccc2[nH]c(=O)c(CN(Cc3ccco3)C(=O)N3CCOCC3)cc2c1,0%,0.1,-2,6.2,0.0,-0.1,-19,-3
COc1ccc(N2C(=O)CC(NNc3nc4ccccc4s3)C2=O)cc1 (stereo not drawn),-7%,-5.4,-9,-0.6,-3.1,-1.1,-4,?
CC(C)c1ccc(/C=C(/C#N)c2nnc(NC(=O)c3ccccc3)s2)cc1,-2%,-8.3,6,-3.1,/,0.2,5,-1
O=C(OCC(=O)N1CCCc2ccccc21)c1ccccc1OC(F)F,-3%,/,1,-6.1,3.7,1.1,/,/
O=C(Nc1ccc(F)c([N+](=O)[O-])c1)C(=O)c1c(O)[nH]c2ccccc12,?,1.4,-5,0.2,4.1,-1.5,8,-13
S=C(Nc1ccc(Br)cc1)N1CCn2cccc2C1c1cccnc1 (stereo not drawn),-5%,4.3,/,/,8.7,/,79*,-4
FC(F)(F)c1ccccc1-n1c(-c2cnccn2)n[nH]c1=S,-6%,-0.2,-8,-8.3,-4.7,0.4,-7,41
N/C(=N\OC(=O)CCC1CCCCC1)c1ccccn1,-3%,-2.0,0,-0.5,/,-1.1,-2,-5
COc1ccc(CCNC(=O)C2CCN(Cc3nc(-c4ccccc4C)oc3C)CC2)cc1OC,17%,?,3,-2.4,/,0.2,27,-11
# New compounds follow
SMILES,Vif A3G,RanGTP-Impb inh,Beta cell apopt,LANA-H2A inh,AF4-AF9 inh,Bfl-1 A1 inh,T cruzi repl,Calb FLC
CCC(c1nnc(SCc2nc3ccccc3s2)n1Cc1ccccc1)N(C)C (stereo not drawn),-12%,1.5,-2,-3.7,/,0.1,14,-1
C=CCNC(=O)CSc1nc2ccccc2c(=O)n1CCc1ccc(OC)c(OC)c1,/,-3.0,1,1.5,-1.3,0.9,-6,3
C=CCC[C@@H](Cc1ccc(F)cc1)C(=O)OC[C@@H](C)NC(=O)[C@H](CC=C)CC(=O)N(CCO)Cc1ccccc1,/,/,-3,-1.4,2.0,1.8,/,/
CN(C)S(=O)(=O)c1cccc(NC(=O)c2ccc(OC(F)(F)F)cc2)c1,-9%,-3.5,-10,-1.3,0.9,-0.2,-2,-10
CCNC(=O)c1cc(Cl)ccc1OC,-13%,1.6,/,1.1,-1.7,1.3,-2,-4
CCC(CC)C(=O)Nc1cccc(C(=O)NC(C)(C)C)c1,1%,-0.9,-7,-8.3,-2.4,-0.1,9,-25
CC(=O)c1ccc(N2CCCCC2)c(F)c1,6%,0.5,6,-2.4,3.2,-1.3,-11,-2
O=C(Nc1ccc(S(=O)(=O)N2CCOCC2)cc1)c1ccc(Cl)cc1Cl,/,-2.7,-1,1.9,-17,0.5,-4,-4
CCOc1ccc(NC(=O)CNC(=O)Cc2ccccc2)cc1,-4%,0.0,/,/,1.4,/,3,4
Cc1[nH]c2ccccc2c1C(=O)COC(=O)c1cccc(S(=O)(=O)N2CCCCC2)c1,/,-5.6,2,-1.4,/,0.1,27,3
CCN(CC)S(=O)(=O)c1ccc(Cl)c(NC(=O)c2cc(Cl)ccc2Cl)c1,/,6.3,-3,2.5,-37,0.6,-1,-17
COc1ccc(S(=O)(=O)CCC(=O)Nc2c(C)n(C)n(-c3ccccc3)c2=O)cc1,16%,/,-4,3.2,/,1.2,/,/
CCn1c(-c2ccccc2)csc1=Nc1ccc(S(=O)(=O)O)cc1,-6%,4.1,-4,1.2,-4.0,-0.5,-20,?
O/N=C/c1ccc2ccccc2c1,?,3.4,-5,-1.2,0.3,-0.6,-15,8
O=c1c2ccccc2nnn1Cc1ccccc1Cl,18%,2.3,-5,-17,0.2,0.3,-5,-21
CCCn1ncc(C(=O)NC2CCCN(Cc3ccc(Cl)cc3)C2)c1C (stereo not drawn),22%,4.8,-2,6.8,-0.6,0.4,25,-1
O=c1[nH]c(-c2ccccn2)nc2sc(-c3ccccc3)cc12,1%,12,/,/,-0.1,/,55*,-21
Cc1nc(=O)c(-c2ccccc2)c(C)n1CC1CCCO1 (stereo not drawn),-1%,-0.4,-1,-1.3,/,0.5,-13,-1
Cc1csc(N/N=C/c2ccccc2F)n1,/,?,5,-2.5,3.8,-4.4,-28,1
O=C(NCCc1nnc2ccc(N3CCCC3)nn12)c1ccccc1,-3%,-1.0,-4,-2.0,1.3,-0.3,3,-12
CC(=O)OCc1ccccc1Sc1ccccc1C(=O)NCc1ccccc1,4%,4.7,-4,-3.0,8.7,-0.4,10,?
O=C(NCc1ccccc1)/C(=C/c1ccc(OC(F)F)cc1)c1ccccc1,69%,-11,8,3.4,/,0.1,32,2
Cc1cc(=O)cc(C)n1-c1ccc(O)cc1,9%,-0.1,-9,6.0,-1.1,-0.2,-12,6
CS(=O)(=O)N1CCCC(C(=O)NCCCN2CCOCC2)C1 (stereo not drawn),-6%,3.2,-3,5.3,-14,0.4,-15,6
Cc1cccc(C)c1NC(=O)CSCC(=O)c1ccc(O)c(O)c1,?,-3.8,-6,1.7,/,-0.7,-27,-36
# (further entries)
SMILES,Vif A3G,RanGTP-Impb inh,Beta cell apopt,LANA-H2A inh,AF4-AF9 inh,Bfl-1 A1 inh,T cruzi repl,Calb FLC
CCC(C)[C@H](NC(=O)N1CC(=O)Nc2ccccc21)C(=O)N[C@H](Cc1ccccc1)C(=O)O (stereo partly drawn),/,4.0,-5,-6.5,-1.0,0.8,-2,2
Cn1c(SCC(=O)NC2CCS(=O)(=O)C2)nc2ccccc21 (stereo not drawn),/,/,-5,1.9,0.0,0.2,/,/
CN(CC(=O)Nc1ccccc1[N+](=O)[O-])Cc1ccc(Br)cc1,-8%,?,-6,1.0,7.3,0.8,-4,20
C/C(=N\NC(=O)c1ccoc1C)c1ccccc1,-2%,0.6,-1,-4.9,-1.8,-6.9,-2,7
O=C(Cc1cccc2ccccc12)N/N=C/c1ccc(Sc2cccc3cccnc23)o1,-16%,1.6,-19,1.7,/,0.3,17,-2
O=[N+]([O-])c1ccc(C2CNC(c3ccccc3)O2)cc1 (stereo not drawn),?,0.6,5,-3.0,0.6,-0.2,-6,-10
COc1ccc(Cc2nc(-c3ccc(-n4cccc4)cc3)no2)cc1,-6%,?,-3,3.6,-0.6,0.0,-5,-2
O=C(N1CCN=C1SCc1cccnc1)C12CC3CC(CC(C3)C1)C2,-2%,-0.3,4,-5.8,/,0.6,17,9
CC(C)CCN1CCN(Cc2cccc3nonc23)CC1CCO (stereo not drawn),/,0.9,-1,-0.4,0.4,0.7,-6,-10
CCCOc1ccc(/C=C/C(=O)N2CCN(c3ccccn3)CC2)cc1,1%,?,0,-0.5,-0.7,0.3,-1,3
CCOc1ccc(C(=O)NCC(=O)OCc2c(F)cccc2Cl)cc1OCC,/,2.2,-3,-0.5,-0.5,-0.9,0,-5
COc1cc(OC)cc(C(=O)NCC(=O)OCC(=O)N2c3ccccc3NC(=O)C2(C)C)c1,/,-4.8,0,-0.3,-12,0.9,-10,1
COc1cccc(NC(=O)Cn2c(=O)n(-c3ccccc3)c(=O)c3oc4ccccc4c32)c1,-4%,2.3,7,-4.4,/,1.1,30,20
CCCCN(C(=O)c1oc2ccc(OCC)cc2c1C)c1c(N)n(CC(C)C)c(=O)[nH]c1=O,1%,-1.0,-6,1.0,-1.6,0.3,6,1
COc1cc(C#Cc2c(-c3cncn3C)n(C)c3ccc(-c4ccc(OC)nc4)cc23)cc(OC)c1,/,/,18,1.6,13,0.9,/,/
COc1ccc(C2N(c3ccccc3)C(=S)N3CCCN23)cc1 (stereo not drawn),-3%,-1.7,-3,1.7,/,-0.1,-5,2
COc1cccc(NC(=O)CNCc2ccccc2)c1,-7%,1.4,-6,2.4,1.4,-0.3,-18,31
CCOC(=O)CC(=O)CSc1nc2ccccc2c(=O)n1-c1ccc(C(=O)NCCOC)cc1,0%,2.3,-1,4.4,/,-0.3,-40,1
N#CC(c1ccccn1)(c1ncc(C(F)(F)F)cc1Cl)N1CCOCC1 (stereo not drawn),0%,-2.6,-3,-2.9,/,-0.1,-7,8
COc1ccc(CCNC(=O)c2cc3ccccc3oc2=O)cc1,/,3.4,1,2.0,-1.3,0.6,4,-1
COC(=O)CNC(=O)COC(=O)C(Cc1ccccc1)NC(=O)c1ccco1 (stereo not drawn),11%,-0.4,-5,-5.7,/,0.2,1,-5
COc1cc(CNc2ccc(N3CCN(C(C)=O)CC3)cc2)ccc1OCc1ccccc1,/,-2.2,-5,-0.9,10,-1.5,-8,-5

# Source: PubChem (several laboratories)
